MLL AF4-AF9 inh = MLL-AF4/AF9 protein interaction inhibition; P42568; inhibition, % at 10 µM; AID 651704; 350,000 tested, 0.47% active; AlphaScreen, biotin-AF4 peptide binding to FLAG-AF9;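 active means every replicate reaching a set inhibition limit, whatever the replicate mean, cut at about 25% in these data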;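 further: 0% = plate neutral control median and 100% = total signal loss; the record names both 10 and 1 µM as test concentration; the first replicate is given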
Target sequence (P42568 whole entry, looked up): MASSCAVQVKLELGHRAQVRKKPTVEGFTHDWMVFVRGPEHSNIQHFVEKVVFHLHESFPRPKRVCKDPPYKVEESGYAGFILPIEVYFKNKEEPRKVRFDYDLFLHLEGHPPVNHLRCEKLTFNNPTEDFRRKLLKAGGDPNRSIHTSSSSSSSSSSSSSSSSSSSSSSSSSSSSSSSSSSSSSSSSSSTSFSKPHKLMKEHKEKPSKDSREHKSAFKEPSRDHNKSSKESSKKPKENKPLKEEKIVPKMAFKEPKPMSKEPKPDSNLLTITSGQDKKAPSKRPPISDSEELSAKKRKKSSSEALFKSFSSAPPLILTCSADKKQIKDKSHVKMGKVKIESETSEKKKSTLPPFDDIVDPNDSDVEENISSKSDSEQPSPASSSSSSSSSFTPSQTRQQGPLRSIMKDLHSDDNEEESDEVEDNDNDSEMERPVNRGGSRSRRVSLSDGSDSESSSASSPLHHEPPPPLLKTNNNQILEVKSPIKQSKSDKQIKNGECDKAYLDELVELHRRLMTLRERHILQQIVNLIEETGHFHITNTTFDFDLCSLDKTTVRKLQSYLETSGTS
Ecoli rRNA inh = inhibits bacterial ribosomal RNA function over humanized ribosomes; E. coli WT GFP vs humanized-ribosome RFP mutants, fluorescence, 24 h; active compounds read low; DMSO median 0, no signal -100; GFP signal change (wild-type ribosome), % (test concentration not listed); 350,000 tested, 1.6% active; AID 720706;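 active means significant combined selectivity score with lowered wild-type GFP, culture density cut under 30%, mutant RFP and density less affected; inactive means any of these conditions unmet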; further: one replicate is shown; some compounds called inactive have numbers as strong as hits
Ecoli rRNA inh OD600 = recorded beside Ecoli rRNA inh, whose call it bears; OD600 change, %; measured here: OD600 growth;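 optical density of the mix in the first replicate; 0 = DMSO median and -100 = no signal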
Ecoli rRNA inh RFP = also measured in Ecoli rRNA inh; calls as there; RFP signal change, %; measured here: RFP humanized mutant strains;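 first replicate; 0 = DMSO median and -100 = no signal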
* hit, by the source's call; & = joins results of further samples. Only part of the results is shown; the hit share may differ from the screen's.

SMILES	MLL AF4-AF9 inh	Ecoli rRNA inh	Ecoli rRNA inh OD600	Ecoli rRNA inh RFP
COCC(=O)N1CC(=O)N2[C@H](CO)[C@@H](c3ccc(C#CC4CC4)cc3)[C@H]2C1	-1.5	3	6	-0.9
CC(C)NC(=O)Nc1ccc2c(c1)C(=O)N([C@@H](C)CO)C[C@@H](C)[C@H](CN(C)CC1CCCCC1)OCCCC[C@@H](C)O2	-6.6	1	1	1.7
CO[C@H]1CN(C)C(=O)c2cc(NC(C)=O)ccc2OC[C@H](C)N(C(=O)c2ccccc2F)C[C@@H]1C	-0.8	2	-3	0.0
CC(C)NC(=O)Nc1cccc2c1O[C@H](CN(C)C)[C@H](C)CN([C@@H](C)CO)C2=O	0.1	3	17	0.0
CC(=O)Nc1ccc(OCc2cn(CC(=O)c3ccc(O)cc3)nn2)cc1	-5.2	9	13	3.6
CCCCNc1ccc2c(c1)OC[C@@H](Cc1ccccc1)NS2(=O)=O	-1.4	-28*	-15*	-0.8*
COc1ccc(NC(=O)N(C)C[C@@H]2Oc3c(NC(=O)Nc4ccc5c(c4)OCO5)cccc3C(=O)N([C@H](C)CO)C[C@@H]2C)cc1	7.4	-2	-10	3.6
CC=Cc1ccc2n(c1=O)C[C@H]1[C@H](CO)[C@@H](C(=O)NC3Cc4ccccc4C3)N(CC3CC3)[C@@H]21 (mixture of isomers)	1.3	-3	-10	6.8
C[C@@H]1CCCCO[C@@H](CN(C)C(=O)c2ccccc2)[C@@H](C)CN([C@H](C)CO)C(=O)c2cc(NC(=O)Nc3ccccc3)ccc2O1	-9.5	2	9	-2.0
O=C1C(=Cc2cccc(Cl)c2)Cc2ccccc21	1.9	5	16	-2.4
COCCNc1nc(NCc2ccc(NC(C)=O)cc2)c2sccc2n1	0.6	31	16	6.3
C[C@H](CO)N1C[C@H](C)[C@@H](CN(C)C(=O)Cc2ccncc2)Oc2cc(C#Cc3ccccc3F)ccc2S1(=O)=O	2.1	-4	-8	4.9
COC(=O)[C@]12CCCCC=C1N(Cc1ccco1)C(=O)[C@H](CC(=O)NCc1ccc(OC)c(OC)c1)C2	1.8	-6	3	3.1
O=C(C[C@H]1CC[C@H](NC(=O)c2ccc(F)cc2)[C@H](CO)O1)NCCc1ccccc1	1.4	0	4	0.3
Cc1ccc(S(=O)(=O)NC(=O)C2(C)CCN2C(=O)CCc2ccc(Cl)cc2Cl)cc1 (configuration not stated)	0.3	-16	-21	-2.7
C[C@@H]1CN([C@@H](C)CO)C(=O)c2cc(C#CCN(C)C)cnc2O[C@H]1CN(C)C(=O)Nc1cccc(F)c1	1.4	4	12	0.0
C[C@@H]1CN([C@@H](C)CO)C(=O)c2cccc(NC(=O)C3CCOCC3)c2O[C@@H]1CN(C)Cc1ccc2c(c1)OCO2	-0.3	6	11	0.6
CC(=O)N(C)C[C@H]1Oc2ncc(-c3ccc(C(=O)N(C)C)cc3)cc2C(=O)N([C@@H](C)CO)C[C@@H]1C	-1.4	0	11	-0.4
CCCCCCCCNS(=O)(=O)CCNCc1ccccc1	-3.9	-7	-22	7.7
C[C@@H]1CCCCO[C@H](CN(C)C(=O)c2ccccc2)[C@@H](C)CN([C@H](C)CO)C(=O)c2cc(NC(=O)Nc3cccc4ccccc34)ccc2O1	-0.5	0	-3	0.0

Structures above with sulfur:
SMILES	MLL AF4-AF9 inh	Ecoli rRNA inh	Ecoli rRNA inh OD600	Ecoli rRNA inh RFP
CCCCNc1ccc2c(c1)OC[C@@H](Cc1ccccc1)NS2(=O)=O	-1.4	-28*	-15*	-0.8*
COCCNc1nc(NCc2ccc(NC(C)=O)cc2)c2sccc2n1	0.6	31	16	6.3
C[C@H](CO)N1C[C@H](C)[C@@H](CN(C)C(=O)Cc2ccncc2)Oc2cc(C#Cc3ccccc3F)ccc2S1(=O)=O	2.1	-4	-8	4.9
Cc1ccc(S(=O)(=O)NC(=O)C2(C)CCN2C(=O)CCc2ccc(Cl)cc2Cl)cc1 (configuration not stated)	0.3	-16	-21	-2.7
CCCCCCCCNS(=O)(=O)CCNCc1ccccc1	-3.9	-7	-22	7.7

Single values from the list:
Ecoli rRNA inh, `C[C@@H]1CN([C@@H](C)CO)C(=O)c2cc(C#CCN(C)C)cnc2O[C@H]1CN(C)C(=O)Nc1cccc(F)c1` = 4
MLL AF4-AF9 inh, `C[C@@H]1CCCCO[C@H](CN(C)C(=O)c2ccccc2)[C@@H](C)CN([C@H](C)CO)C(=O)c2cc(NC(=O)Nc3cccc4ccccc34)ccc2O1` = -0.5

More results
SMILES	MLL AF4-AF9 inh	Ecoli rRNA inh	Ecoli rRNA inh OD600	Ecoli rRNA inh RFP
COc1ccc(OC)c(NC(=O)Nc2nc(C(C)N)cs2)c1 (configuration not stated)	14	0	-9	13
C[C@@H]1CN([C@@H](C)CO)C(=O)c2cc(NS(=O)(=O)c3ccc(Cl)cc3)ccc2O[C@@H]1CN(C)C(=O)Nc1cccc2ccccc12	2.4	-3	-11	1.0
Cc1ccc(S(=O)(=O)Nc2ccc3c(c2)C(=O)N([C@@H](C)CO)C[C@@H](C)[C@H](CN(C)C(=O)Nc2c(C)noc2C)O3)cc1	-0.2	4	12	0.3
O=C(Nc1cc(F)ccc1F)N1CC(=O)N2[C@H](CO)[C@@H](c3ccc(-c4cccc(F)c4)cc3)[C@H]2C1	2.7	-13	-50	15
Cc1ccc(S(=O)(=O)N(C)C[C@@H]2Oc3ccc(NC(=O)Cc4ccccc4)cc3C(=O)N([C@H](C)CO)C[C@@H]2C)cc1	-1.8	2	3	-0.6
C[C@H](CO)N1C[C@H](C)[C@H](CN(C)C(=O)Cc2ccccc2)OCCCC[C@H](C)Oc2ccc(NS(=O)(=O)c3cccs3)cc2C1=O	3.1	-1	-5	4.1
C[C@@H]1CN([C@H](C)CO)C(=O)Cc2cc(NC(=O)Nc3ccccc3)ccc2O[C@H]1CN(C)Cc1ccc(-c2ccccc2)cc1	0.7	2	2	-0.5
CCC(=O)N1CC2(C1)CN(Cc1ccc(Cl)cc1)[C@@H](CO)c1[nH]c3cc(OC)ccc3c12	-0.6	-11	-14	1.0
O=C(C[C@@H]1C=C[C@@H](NC(=O)CC2CC2)[C@@H](CO)O1)NCc1ccccc1	-1.7	1	5	0.5
CC(C)NC(=O)N(C)C[C@@H]1Oc2c(NC(=O)Nc3ccccc3)cccc2C(=O)N([C@@H](C)CO)C[C@H]1C	0.3	3	6	-1.9
COc1cccc(-c2ccc([C@@H]3[C@H](CO)N4C(=O)CN(C(=O)c5cccnc5)C[C@@H]34)cc2)c1	2.1	-1	-7	-3.2
NC(Cc1ccc(F)cc1)c1csc(NC(=O)NC(c2ccccc2)c2ccccc2)n1 (configuration not stated)	-0.3	-32	-27	-3.7
N#C[C@H]1[C@@H](c2ccc(C3=CCCCC3)cc2)[C@@H](CO)N1C(=O)c1cccc(F)c1	1.4	-11	-9	3.2
CC(C)NC(=O)N(C)C[C@H]1OCCCC[C@H](C)Oc2ccc(NC(=O)CCC(F)(F)F)cc2C(=O)N([C@H](C)CO)C[C@H]1C	-4.1	3	8	-2.8
O=C(C[C@@H]1CC[C@H](NS(=O)(=O)c2ccccc2)[C@H](CO)O1)N1CCN(c2ccccc2)CC1	-3.2	-1	0	-1.0
COc1cccc(S(=O)(=O)Nc2ccc3c(c2)C(=O)N(C)C[C@H](OC)[C@@H](C)CN[C@H](C)CO3)c1	-2.2	3	4	2.0
CO[C@@H]1CN(C)C(=O)c2cc(NC(=O)c3ccccc3F)ccc2OC[C@H](C)N(C(C)=O)C[C@@H]1C	-0.3	1	1	-1.6
C[C@H](CO)N1C[C@H](C)[C@@H](CN(C)C(=O)Nc2ccc(F)cc2)Oc2ccc(NC(=O)Nc3ccccc3)cc2CC1=O	-0.3	2	-1	0.0
CCC(=O)N1[C@@H](CO)[C@@H](c2ccc(-c3ccccc3)cc2)[C@@H]1CN(CC)C(C)=O	0.3	-2	-9	0.0
CCC(=O)N[C@@H]1CC[C@H](CCn2cc(-c3cccc(OC)c3)nn2)O[C@@H]1CO	0.2	1	-2	1.6
CCNC(=O)C1CCCN(C(=O)c2cc(F)cc(F)c2)CC1 (configuration not stated)	-1.6	12	13	-1.8
COc1ccc(S(=O)(=O)Nc2ccc3c(c2)CC(=O)N([C@@H](C)CO)C[C@@H](C)[C@@H](CN(C)C(=O)Nc2ccccc2)O3)cc1	2.4	2	5	-0.4
C[C@@H]1CN([C@@H](C)CO)C(=O)c2cccc(NS(C)(=O)=O)c2O[C@H]1CN(C)C(=O)NC1CCCCC1	0.6	2	0	-4.2
Cc1ccc(S(=O)(=O)N(C)C[C@H]2Oc3ccc(NS(=O)(=O)c4cccs4)cc3C(=O)N([C@@H](C)CO)C[C@H]2C)cc1	1.6	-1	-12	-0.8
COCCNc1nc(Oc2cncc(Cl)c2)c2sccc2n1	-1.9	-5	-6	0.9
CN(C)CCNc1ccc2nnn3c4ccc(O)cc4c(=O)c1c23	-3.5	-26	-48	1.6
O=C(NCC[C@H]1CC[C@H](NS(=O)(=O)Cc2ccccc2)[C@H](CO)O1)C1CCC1	-3.4	-1	0	-0.7
O=C(O)[C@@H]1[C@@H](CO)[C@@H]2Cn3c(ccc(-c4ccccc4)c3=O)[C@@H]2N1CCc1ccccc1	0.5	-3	2	0.6
O=C(Nc1ccc2c(c1)OCO2)N[C@@H]1CC[C@@H](CCNC(=O)C2CCC2)O[C@@H]1CO	-19	3	-4	-3.3
Cc1noc(C)c1NC(=O)Nc1ccc2c(c1)CC(=O)N([C@H](C)CO)C[C@H](C)[C@@H](CN(C)C(=O)Nc1ccc(F)cc1)O2	1.1	1	0	-1.1
CN1C(=O)c2cc(NC(=O)Nc3ccc(F)cc3)ccc2OC[C@@H]2O[C@@H](CC(=O)NC3CCC3)CC[C@H]21	0.3	-3	-4	2.0
CC(C)NC(=O)N1C[C@H]2[C@@H](c3ccccc31)[C@@H](CO)N2C(=O)C1CCCC1	-11	1	3	1.9
CC[C@]12c3[nH]c4ccc(OC)cc4c3CCN1C(=O)C(CC(=O)NCc1ccco1)C[C@@H]2C(=O)N1CCN(C(=O)c2ccco2)CC1 (some centres not stated)	5.4	-1	6	-5.1
Cc1ccccc1-c1cnc2c(c1)C(=O)N([C@@H](C)CO)C[C@H](C)[C@H](CN(C)Cc1cccnc1)O2	-1.9	-2	1	-0.4
CCOC1=C2[C@@H](CN(S(=O)(=O)c3ccc(C)cc3)[C@H]2c2ccccc2F)[C@H]2C(=O)N(Cc3ccccc3)C(=O)[C@H]2C1	0.6	10	3	-3.2
C[C@H](CO)N1C[C@H](C)[C@@H](CN(C)C(=O)C2CCCCC2)Oc2ncc(-c3ccccc3)cc2C1=O	-1.3	0	2	1.2
Cc1ccc(S(=O)(=O)N(C)C[C@@H]2Oc3c(NC(=O)Nc4c(C)noc4C)cccc3C(=O)N([C@H](C)CO)C[C@@H]2C)cc1	1.1	2	8	-1.8
O=C(C(=O)N1CCN(C(=O)OCc2ccccc2)CC1)c1cccnc1	-0.8	3	-3	2.7
C[C@@H]1CN([C@@H](C)CO)C(=O)c2cc(/C=C/c3ccccc3)cnc2O[C@H]1CN(C)Cc1ccc2c(c1)OCO2	13	3	-18	27
CNC[C@H]1Oc2ncc(C#Cc3cccc(OC)c3)cc2C(=O)N([C@H](C)CO)C[C@H]1C	4.3	-3	4	1.5
C[C@@H](O)C#Cc1ccc2c(c1)O[C@@H](CN(C)C)[C@@H](C)CN([C@@H](C)CO)S2(=O)=O	-2.1	0	5	-5.1
C[C@H]1CN([C@@H](C)CO)C(=O)c2cc(C#Cc3ccccc3F)cnc2O[C@H]1CN(C)S(=O)(=O)c1ccccc1F	1.4&0.5	-2	3	2.1
O=C(C(=O)N1CCC(CNS(=O)(=O)c2ccc(OC(F)(F)F)cc2)CC1)c1cc2ccccc2o1	2.2	-3	-14	0.7
C[C@@H]1CCCCO[C@@H](CN(C)Cc2ccc(C(F)(F)F)cc2)[C@H](C)CN([C@H](C)CO)C(=O)c2cc(NC(=O)c3ccncc3)ccc2O1	5.2	5	-29	25
O=C(NCC1CC1)[C@H]1[C@H](CO)[C@H]2Cn3c(ccc(-c4ccccc4F)c3=O)[C@@H]1N2Cc1cncnc1	0.3	1	5	-0.5
NS(=O)(=O)c1ccc(CCNC(=O)c2cc(S(=O)(=O)N3CCCCC3)ccc2Cl)cc1	-2.0	3	-2	3.5
CN(C)C(=O)[C@@H]1[C@@H](CO)[C@@H]2Cn3c(ccc(-c4ccccc4)c3=O)[C@H]1N2CC1CCCC1	0.8	-2	1	0.1
O=C(c1cccc(F)c1)N1C[C@@H]2[C@H](c3ccccc31)[C@H](CO)N2C(=O)C1CCOCC1	0.5	3	15	-3.0
COC(=O)N1CCCCC1c1cc(C(=O)Nc2ccccc2Cl)no1 (configuration not stated)	0.6	-4	-22	-1.5
C[C@@H]1CCCCO[C@H](CN(C)C(=O)CCCN(C)C)[C@@H](C)CN([C@H](C)CO)C(=O)c2cc(NS(=O)(=O)c3cccs3)ccc2O1	-1.7	0	-6	-4.0
C[C@@H]1CN([C@@H](C)CO)C(=O)c2cc(-c3cccc(F)c3)cnc2O[C@@H]1CN(C)CC1CCOCC1	-2.8	4	3	-3.6

Source: PubChem
